# Mtb bLac sens: beta-lactam sensitization of Mtb H37Rv. M. tuberculosis H37Rv growth with meropenem, percent inhibition; hits of this screen are not shown here. inhibition, % at 25 µM. 330,000 tested, 0.27% active. AID 434955;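 active means about 74% or more and at least 40 points above the plate without the antibiotic, then above 30% in a dose series; inconclusive means first-round hits that could not be retested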;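 further: growth measured after seven days incubation then overnight dye step; 0% = bacteria only wells and 100% = bacteria with antibiotic; twin plates without the antibiotic show which effects depend on it; some results filed as inactive read as strong as hits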
# * marks the source's active call; other numbers are inactive results; ? = inconclusive. A portion of the library. The share of hits here may be higher or lower than overall.
SMILES,Mtb bLac sens
COc1cc(C(=O)NC(C)c2ccccc2)ccc1OCC(=O)N1CCOCC1 (stereo not given),-9.2
CCOc1ncccc1C(=O)NNC(=O)c1cccc(S(=O)(=O)N2CCOCC2)c1,-8.1
C=CCC[C@H](Cc1ccc(F)cc1)C(=O)OC[C@H](Cc1c[nH]c2ccccc12)NC(=O)[C@H](CC=C)CC(=O)N(CCO)Cc1ccccc1,5.4
COc1ccc(/C=C2\SC(=S)N(CCCC(=O)N3CCN(C)CC3)C2=O)cc1,-11.4
O=C(CSC1=Nc2ccccc2C2CC=NN12)Nc1ccc(F)c(F)c1F (stereo not given),-0.1
O=C(Cc1ccc(Cl)cc1)NNC(=O)C(=O)NC1CCCCC1,17.1
COc1ccccc1-c1nn(-c2ccccc2)cc1C(=O)NC1CC1,1.4
CC(C)(C)OC(=O)NCCCCCNC(=O)c1[nH]cnc1C(=O)Nc1ccc(Cl)cc1,98.6
CCCNC(=O)c1ccccc1NC(=O)c1cccc(-n2cnnn2)c1,-3.6
CCCc1cc(-n2ccnc2C)n2c(nc3ccccc32)c1C#N,-10.2
Nc1nc(N)nc(-c2cc(C(F)(F)F)ccc2Cl)n1,-9.5
Cc1cc(C)c(NC(=O)CSc2cccc[n+]2[O-])c(C)c1,1.0
O=C(O)Cn1c(Cc2ccccc2)nc2ccccc21,-0.6
COC(=O)c1cc(C)sc1NC(=O)CCc1ccccc1,-8.3
O=C(CN1C(=O)NC(c2ccccc2)(c2ccccc2)C1=O)NCCc1ccc(F)cc1,-8.1
CC(C)NC(=O)N(C)C[C@H]1Oc2ccc(NS(=O)(=O)c3cccs3)cc2C(=O)N([C@H](C)CO)C[C@@H]1C,0.6
COc1c2ccoc2cc2oc(=O)ccc12,-1.0
O=C(Nc1cccc(S(=O)(=O)N2CCCCC2)c1)c1ccc(Cl)nc1,-9.8
Cc1noc(C)c1COc1ccccc1C(=O)N(C)Cc1ccc(C(C)(C)C)cc1,3.5
CCCCCC(=O)Nc1cccc(S(=O)(=O)NC2=NCCCCC2)c1,4.1
CSc1cccc(Nc2ccc(S(=O)(=O)N3CCOCC3)cc2[N+](=O)[O-])c1,-8.0
O=C(CSc1ccccn1)Nc1ccc2[nH]c(=O)[nH]c2c1,-1.3
O=C(C1CC(=O)N(c2ccc3c(c2)OCCO3)C1)N1CCN(Cc2ccccc2)CC1 (stereo not given),-4.9
CCN(CC)CCCNC(=O)Cn1cnc2sc(C)c(S(=O)(=O)N3CCC(C)CC3)c2c1=O,-8.7
Cc1ccccc1NC(=O)Cc1nc(-c2c[nH]c(C(=O)N3CCCC3)c2)cs1,-3.4

# Other structures:
SMILES,Mtb bLac sens
Cc1ccc(NC(=O)COC(=O)C2CC2)cc1Cl,10.7
O=S(=O)(c1ccccc1)c1nc(-c2ccccc2Cl)oc1NCCCN1CCOCC1,-2.2
CC(=O)Nc1ccc(C(=O)OCC(=O)N2CCCC2=O)cc1,-9.7
CCC(C)CCN1C(N(C)C)=NC[C@@H]1Cc1ccccc1 (stereo not given in full),-0.1
CCCCN(C(=O)c1ccc(COc2ccccc2)o1)c1c(N)n(CC(C)C)c(=O)[nH]c1=O,-6.5
CCN1C(=NCCc2ccccn2)N[C@@H](c2cccc(C(F)(F)F)c2)C(C(=O)OC)=C1C,1.9
CCOc1ccc(C(C)NC(=O)CN2C(=O)NC3(CCCCC3)C2=O)cc1OCC (stereo not given),2.3
O=C(NCCN1CCN(C(=O)c2cccc(OC(F)F)c2)CC1)c1cccc(OC(F)F)c1,-8.7
O=C(OCC(=O)N1CCC(Cc2ccccc2)CC1)c1cncc(Br)c1,97.0
O=C(Cn1[nH]c(=O)c2ccccc2c1=O)OCC(=O)c1ccccc1Cl,4.9
CN(C(=O)COC(=O)c1cccc(Cl)c1)C1CCS(=O)(=O)C1 (stereo not given),-11.1
COCc1cccc(C2=CC(=O)C[C@H](c3ccc(F)cc3)C2)c1,-1.5
Cc1ccc(C(=O)N(C)Cc2nc3ccccc3c(=O)[nH]2)cc1NC(=O)c1ccco1,-2.0
O=C(COC(=O)Cc1ccc([N+](=O)[O-])cc1)NC1CCCCCC1,6.1
Cc1ccnc2nc(C(=O)OCC(=O)NCc3cccc(Cl)c3)nn12,0.5
NS(=O)(=O)c1ccc(N2CCOCC2)c(C(=O)NCc2cccs2)c1,2.3
CC(C)OC(=O)Cc1ccccc1,-4.2
Cc1cc(C(=O)Nc2ccccc2C)c2ccccc2n1,12.9
Cc1cc(C)c(N(CC(=O)NCc2ccccc2)C(=O)c2csnn2)c(C)c1,1.1
O=C(O)Cn1cnc2c(OCc3ccccc3)ncnc21,0.0
Cc1c(C)c2ccc(OCC(=O)N3CCC(C(=O)O)(c4ccccc4)CC3)cc2oc1=O,-0.2
O=C(CSc1nnc2ccccn12)Nc1ccc(N2CCOCC2)cc1,-2.3
Cc1ccc(S(=O)(=O)N2CCC(C(=O)OC(C)C(=O)NC3CCCCC3C)CC2)cc1C (stereo not given),-6.9
CC1(C)O[C@@H]2C[C@H]3[C@@H]4C[C@H](F)C5=CC(=O)C=C[C@]5(C)[C@H]4[C@@H](O)C[C@]3(C)[C@]2(C(=O)CO)O1,-1.3
COc1cccc(CC(=O)OCC(=O)c2cc(OC)ccc2OC)c1,-7.2

# Following part
SMILES,Mtb bLac sens
CC(NC(=O)COc1ccccc1)C(=O)N1CCN(c2ccc(F)cc2)CC1 (stereo not given),-10.6
O=C(Nc1cccc(S(=O)(=O)Nc2ccc(SC(F)F)cc2)c1)C1CCC1,-1.5
COc1cccc(OC)c1C(=O)Nc1ccc(S(=O)(=O)N2CCCCC2)cc1,-18.5
Cc1nc(SCc2nc3c(O)cccc3[nH]2)c2oc3ccccc3c2n1,1.9
Cc1ccc(C(=O)Nc2ccc(N3CCCCC3)cc2)cc1,0.3
Cc1nc2ccc(NS(=O)(=O)c3ccc(F)c(F)c3)cc2s1,-2.2
CC1CCCC(NC(=O)CSc2ncccn2)C1C (stereo not given),-12.8
Cc1noc(C)c1S(=O)(=O)Nc1ccc2c(c1)C(=O)N([C@H](C)CO)C[C@H](C)[C@@H](CN(C)S(=O)(=O)c1ccccc1)O2,-3.4
COc1ccc2c(CC(=O)NNC(=O)c3ccc(O)cc3)coc2c1,-2.1
CSCCC(=O)N1CCC(n2nccc2NC(=O)c2ccc3c(c2)OCO3)CC1,-5.4
COc1ccc(C(=O)OC(C)C(=O)NC2CCCc3ccccc32)cc1OC (stereo not given),1.3
Cc1cccc(N(C(=O)CNC(=O)c2ccco2)C(C(=O)NC2CCCC2)c2ccncc2)c1C (stereo not given),-15.6
C[C@@]12C(=O)Nc3ccc(Cl)cc3C(=O)N1[C@H]1c3cc(Cl)ccc3OC[C@@H]1[C@@H]2c1ccccc1,6.8
COc1ccccc1CNC(=O)c1cc(-c2ccccc2)n(Cc2cc(C)no2)n1,2.8
CC(=O)c1ccc(NC(=O)C(C)O/N=C(\N)c2ccccc2)cc1 (stereo not given),4.8
OCCO,2.1
COc1ccc(/C=C/C(=O)OCC(=O)N2CCCCCC2)c(OC)c1,4.1
CC(C)(C)c1ccc(OCC(=O)N2CCN(c3ccccn3)CC2)cc1,-3.1
CCC(=NNC(=O)c1cccc(S(=O)(=O)N2CCOCC2)c1)c1ccccc1,0.8
CCc1noc(C)c1C(=O)OC(C)C(=O)Nc1ccc(Cl)cn1 (stereo not given),-1.9
O=C(CSc1nnc(-c2ccccc2)o1)NC(=O)Cc1ccccc1,-4.9
CC(C)CNC(=O)C1CCN(CC2CCCCC2)CC1,-4.0
CCOC(=O)c1sc(NC(=O)C2CSC3(C)CCC(=O)N23)nc1C (stereo not given),-11.2
COc1cc(N)c(Cl)cc1C(=O)OCC(=O)N1c2ccccc2NC(=O)C1(C)C,3.1
O=C(Nc1cccc(Br)c1)c1cccc(OC(=S)N2CCOCC2)c1,?

# (continued)
SMILES,Mtb bLac sens
O=C(N[C@H]1C/C=C\C[C@@H](CC(=O)N(CCO)Cc2ccccc2)C(=O)NC[C@H](c2ccccc2)OC1=O)OCC1c2ccccc2-c2ccccc21,2.8
O=C(NCc1ccccc1Br)c1cccc2c1C(=O)c1ccc(N3CCOCC3)cc1S2(=O)=O,-3.4
CCOc1ccc(C(=O)NC2CCN(CC(=O)NCc3ccccc3)CC2)cc1,3.0
NNC(=O)Cn1c(-c2ccccc2)cc2ccccc21,2.6
c1ccc2cc(C3CCCCC3)ncc2c1,3.5
COc1ccccc1/C=C/C(=O)OCC(=O)NC1CCS(=O)(=O)C1 (stereo not given),-10.9
CC(C)(C)C(=O)N1CCN(C(=O)c2ccco2)CC1,4.6
Cc1ccc(C)c(S(=O)(=O)N2CCN(c3ncnc4sccc34)CC2)c1,6.8
CCOc1ncccc1C(=O)OCC(=O)Nc1ccc2c(c1)CCC2,0.6
Cc1ccc(NC(=O)C2=CN3CCS(=O)(=O)N=C3C=C2)cc1,-4.7
Cc1ccc(OCCNC(=O)c2cccc(S(=O)(=O)N3CCN(C)CC3)c2)cc1,-2.0
CCc1noc(C)c1C(=O)NC1CC(C)(C)Cc2c1cnn2-c1ccccc1 (stereo not given),?
Cc1nn(CCO)c2ncc(C(=O)c3cc(Cl)ccc3O)cc12,-6.7
Cc1ccc(NC(=O)CN(C)C(=O)COC(=O)c2oc3ccccc3c2C)cc1,-10.9
CC(C)(C)OC(=O)N1CCC(NC(=O)c2ncn(Cc3ccccc3)c2C(=O)NC2CCN(C(=O)OC(C)(C)C)CC2)CC1,22.0
COc1ccc(Cn2c(=S)[nH]c3cc(C(=O)N4CCN(c5ccccc5)CC4)ccc3c2=O)cc1,0.4
COc1ccc(/C=C/C(=O)OCC(=O)NC2CCCCCCC2)cc1,77.4
Cc1c(C)c2ccc(OC(C)C(=O)N3CC[C@@]4(O)CCCC[C@H]4C3)cc2oc1=O (stereo not given in full),-0.3
Cc1ccsc1C(=O)OCC(=O)N1CCN(c2ccccc2)CC1,12.7
O=[N+]([O-])c1c2ccccc2cc2ccccc12,39.2
CC1CCC(NC(=O)c2cc3ccccc3cc2O)CC1 (stereo not given),-3.6
CN(C)C(CNC(=O)CN1C(=O)NC2(CCCC2)C1=O)c1ccccc1 (stereo not given),-5.5
CN(CC(=O)Nc1ccc(F)c(F)c1F)C(=O)c1ccc(-n2cncn2)cc1,2.9
O=C(COC(=O)COc1ccccc1[N+](=O)[O-])NCc1ccc2c(c1)OCO2,-9.5
C=CC[C@@H](CC(=O)N[C@@H](CO)Cc1ccccc1)C(=O)N[C@@H](COC(=O)[C@@H](CC=C)Cc1ccc(F)cc1)Cc1c[nH]c2ccccc12,-2.1

# Grouped by structure: those above with a CF3 group
SMILES,Mtb bLac sens
Nc1nc(N)nc(-c2cc(C(F)(F)F)ccc2Cl)n1,-9.5
CCN1C(=NCCc2ccccn2)N[C@@H](c2cccc(C(F)(F)F)c2)C(C(=O)OC)=C1C,1.9

# Remaining list, next part
SMILES,Mtb bLac sens
COc1ccc(-c2cc3ncccc3cn2)cc1,10.7
CCOc1ccccc1OCC(=O)OC(C)C(=O)Nc1ncc(Cl)cc1Cl (stereo not given),-2.6
S=c1[nH]nc(-c2ccc(Cl)cc2Cl)n1-c1ccccc1,1.7
CCOc1ccc(S(=O)(=O)NCCC(=O)OCC(=O)NC(=O)c2cccn2C)cc1,-5.2
Cc1ccc(F)cc1CNC(=O)C1CCC(=O)N(CCCN2CCCC2=O)C1 (stereo not given),?
NCc1cc(=O)[nH]o1,-7.5
CCc1ccc(Nc2nnc(SCC(=O)c3c(N)n(C4CC4)c(=O)[nH]c3=O)s2)cc1,-8.2
C[C@H](CO)N1C[C@H](C)[C@H](CN(C)CC2CC2)Oc2ccc(NC(=O)CCN3CCOCC3)cc2C1=O,2.6
CCOC(=O)N1CCN(C(=S)NC(=O)/C=C/c2ccc(C)cc2)CC1,-2.0
COc1ccccc1CNC(=O)C1CCCN(S(=O)(=O)c2cccs2)C1 (stereo not given),-1.6
COc1ccc2oc(C(=O)Nc3nnc(C)s3)c(C)c2c1,-3.6
NC(=O)c1ccc(SCC(=O)OCC(=O)N2CCN(C(=O)c3ccco3)CC2)c([N+](=O)[O-])c1,-1.6
COc1ccc(C)cc1NC(=O)C1CCN(S(C)(=O)=O)CC1,1.5
COC(=O)c1cc(C(=O)Nc2cc(C)on2)cc([N+](=O)[O-])c1,-0.9
CCNc1oc(/C=C/c2ccc(OCC)cc2)nc1C#N,10.8
C[C@H](NC(=O)c1ccco1)C(=O)NNC(=O)COc1cccc(C(F)(F)F)c1,-0.4
Cc1ccsc1C(=O)NNC(=O)c1ccccc1F,-4.6
CCN(CC(=O)Nc1ccc(NC(C)=O)cc1)C(=O)c1ccc(COc2ccccc2)o1,-4.0
COc1ccc([C@@H](NC(=O)OC(C)(C)C)C(=O)OC(C)(C)C)cc1,-0.4
COc1cc(C(=O)OC(C)C(=O)N2CCCC2)cc2c1OCCO2 (stereo not given),0.1
O=C(NCNC(=O)NC1C(=O)NC(=O)N1CO)NC1C(=O)NC(=O)N1CO (stereo not given),-3.1
Cc1ccc(NC(=O)c2ccc(=O)[nH]n2)cc1S(=O)(=O)Nc1ccc(SC(F)F)cc1,-2.5
O=C1NCCOC(=O)[C@H](Cc2ccc(F)cc2)C/C=C\C[C@@H]1CC(=O)N(CCO)Cc1ccccc1,-10.9
CC(C)(C)OC(=O)N1CCN(C(=O)c2nc[nH]c2C(=O)N2CCN(C(=O)OC(C)(C)C)CC2)CC1,-2.6
CC(C)CN(C(=O)CN(C)CC(=O)Nc1ccc(Cl)c(C(F)(F)F)c1)c1c(N)n(CC(C)C)c(=O)[nH]c1=O,2.1

# Four of the compounds above, bar-delimited.
Structure | Mtb bLac sens
Cc1ccsc1C(=O)NNC(=O)c1ccccc1F | -4.6
CCN(CC(=O)Nc1ccc(NC(C)=O)cc1)C(=O)c1ccc(COc2ccccc2)o1 | -4.0
COc1ccc([C@@H](NC(=O)OC(C)(C)C)C(=O)OC(C)(C)C)cc1 | -0.4
COc1cc(C(=O)OC(C)C(=O)N2CCCC2)cc2c1OCCO2 (stereo not given) | 0.1

# 2 entries from above in a different format:
Compound: Cc1ccc(NC(=O)c2ccc(=O)[nH]n2)cc1S(=O)(=O)Nc1ccc(SC(F)F)cc1
  Mtb bLac sens: -2.5
Compound: O=C1NCCOC(=O)[C@H](Cc2ccc(F)cc2)C/C=C\C[C@@H]1CC(=O)N(CCO)Cc1ccccc1
  Mtb bLac sens: -10.9
